Bioassay records as filed in PubChem BioAssay.
Tb PGK inh – T. brucei PGK inhibition | P07378 | PGK/GAPDH coupled, Kinase-Glo luminescence, 60 min | Potency, µM (highest dose often 57.5 µM), for inactives: at the highest dose activity change, negative = inhibition, usual class: inhibitors | 380,000 tested, 0.043% active; note: % is set by controls: 0 for no effect and ±100 for the full control effect; nearly all actives have a fitted effect of over 60% in size
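Luminescent ATP detection (Kinase-Glo Plus) follows a 60-minute room-temperature incubation, with wells lacking PGK as controls. Buffer: 100 mM TEA (pH 7.6), 5 mM MgCl2, 0.01% Tween-20. Coupling enzyme GAPDH (100 nM final) supplies unstable 1,3-BPG in-well.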
ALOX12 inh – ALOX12 (human) lipoxygenase inhibition. purified 12hLO, xylenol orange hydroperoxide absorbance. 580,000 tested, 1.1% active. Potency, µM (highest dose often 108 µM), without a hit: top-dose activity change, negative = inhibition, hits mostly inhibitors. AID 1671190. P18054; note: % is set by controls: 0 for no effect and ±100 for the full control effect
Target sequence (P18054 whole entry, looked up): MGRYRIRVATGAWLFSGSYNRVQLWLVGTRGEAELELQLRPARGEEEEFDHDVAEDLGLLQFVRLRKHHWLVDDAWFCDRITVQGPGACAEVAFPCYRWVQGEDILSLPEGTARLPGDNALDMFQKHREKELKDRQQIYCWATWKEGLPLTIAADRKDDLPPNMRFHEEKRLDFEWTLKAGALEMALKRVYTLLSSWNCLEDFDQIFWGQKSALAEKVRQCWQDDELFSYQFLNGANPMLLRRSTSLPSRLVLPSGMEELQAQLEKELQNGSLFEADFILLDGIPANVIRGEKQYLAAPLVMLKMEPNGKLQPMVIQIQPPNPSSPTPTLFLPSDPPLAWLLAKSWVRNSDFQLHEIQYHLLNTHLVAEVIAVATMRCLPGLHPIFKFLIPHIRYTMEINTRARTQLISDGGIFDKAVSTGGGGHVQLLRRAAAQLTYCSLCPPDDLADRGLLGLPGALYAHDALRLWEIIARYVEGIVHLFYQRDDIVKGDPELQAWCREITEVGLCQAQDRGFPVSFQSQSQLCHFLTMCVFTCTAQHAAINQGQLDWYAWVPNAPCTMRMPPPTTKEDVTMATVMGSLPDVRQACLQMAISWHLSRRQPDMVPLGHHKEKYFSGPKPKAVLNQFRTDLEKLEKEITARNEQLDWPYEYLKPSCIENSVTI
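Purified human 12hLO at 150 nM in 25 mM Hepes, 0.01% Triton X-100, pH 7.0, preincubated 15 min at room temperature with compound. Reaction started with 40 uM arachidonic acid, 30 min at room temperature. Hydroperoxide measured by Fe-xylenol orange, 573/405 nm absorbance ratio.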
GLS inhibitor – blocks human kidney-isoform glutaminase activity. O94925. GLS enzymatic activity, qHTS titration. Potency, µM (highest dose often 45.5 µM), for the others: at the top dose activity change, negative = inhibition, usual class: inhibitors. 410,000 tested, 0.21% active. AID 624170; note: % is set by controls: 0 for no effect and ±100 for the full control effect
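Read-out is an Amplex red fluorescence increase coupled through glutamate oxidase and HRP, measured before and after 30 min room-temperature incubation. hKGA is in 45 mM KH2PO4 (pH 8.2) with 0.02% Tween-20; glutamine added as 1mM solution.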
ERG Ets-DNA blk – ERG Ets/DNA interaction inhibition; P11308; fluorescence polarization, His-ERG Ets domain / labelled DNA; Potency, µM (series often up to 76.9 µM), for the others: at the highest dose FP activity, negative = inhibition, actives largely listed as inhibitors; 370,000 tested, 0.028% active; AID 624246; active = well fitted inhibition curve with a large enough effect in the polarisation, with a control signal flat; inconclusive = small, poorly fitted or top-dose-only effect, or effect the other way, or a change in a side signal; inactive = no such curve, though single readings can be large or run the other way; the % refers to the polarisation;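 note: polarization taken with two DNA probes labelled with fluorescein and Texas red; % of control where 0% means no effect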
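His-tagged ERG Ets domain (1 uM in the protein solution; 300mM KCl, 50mM Tris-HCl, 1mM EDTA, 1mM DTT, pH 7.5) received compound, then a probe mix of 5 nM fluorescein-DNA and 100nM Texas-615-DNA. Fluorescence polarization was read for both dyes.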
Pin1 inhibitor – inhibitors of human Pin1 | Pin1 FP peptide displacement, HiFluor488, 10 min | Potency, µM (titrated, usually from 115 µM), inactives show top-dose activity, negative = inhibition, most hits filed as inhibitors | AID 504891 | Q13526 | 390,000 tested, 0.009% active; active = well fitted inhibition curve with a large enough effect in the polarisation, with a control signal flat, not every such curve was filed as active; inconclusive = small, poorly fitted or top-dose-only effect, or effect the other way, or a change in a side signal; inactive = no such curve, though single readings can be large or run the other way; the % refers to the polarisation; note: % is set by controls: 0 for no effect and ±100 for the full control effect
Target sequence (Q13526 whole entry, looked up): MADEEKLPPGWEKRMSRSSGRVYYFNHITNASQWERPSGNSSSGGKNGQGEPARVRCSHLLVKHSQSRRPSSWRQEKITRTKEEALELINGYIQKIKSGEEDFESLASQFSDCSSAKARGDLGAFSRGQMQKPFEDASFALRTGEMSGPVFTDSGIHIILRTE
rTrxR1 inhibitor – blocks rat thioredoxin reductase 1; Potency, µM (top dose mostly 114 µM), for inactives: at the top dose activity change, negative = inhibition, hits mostly inhibitors; recombinant rTrxR1, NADPH fluorescence consumption, selenite substrate; O89049; 390,000 tested, 1% active; note: % is set by controls: 0 for no effect and ±100 for the full control effect; nearly all actives have a fitted effect of over 65% in size
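Rat TrxR1 (90 nM in the dispensed reagent) was pre-reduced with 400 uM NADPH for 5 min at room temperature, then incubated with compound for 15 min. After 400 uM selenite was added, NADPH fluorescence (Ex 340/Em 450 nm) was followed for 8 min.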
RGS4 inh – blocks human RGS4-accelerated GTP hydrolysis. P49798. Transcreener GDP fluorescence polarization, RGS4-accelerated GTP hydrolysis. Potency, µM (highest dose often 114 µM), for the others: top-dose activity change, negative = inhibition, actives largely listed as inhibitors. 390,000 tested, 0.039% active; note: % is set by controls: 0 for no effect and ±100 for the full control effect; nearly all actives have a fitted effect of over 75% in size; some results filed as inactive show a strong effect at the top dose
Target sequence (P49798 whole entry, looked up): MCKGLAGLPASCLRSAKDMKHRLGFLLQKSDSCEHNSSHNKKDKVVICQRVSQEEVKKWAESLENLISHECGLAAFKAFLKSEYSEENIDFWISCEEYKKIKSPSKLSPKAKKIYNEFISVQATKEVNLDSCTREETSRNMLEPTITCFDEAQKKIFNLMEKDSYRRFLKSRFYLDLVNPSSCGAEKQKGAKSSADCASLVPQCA
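MLSMR compounds (23 nl, pin-transferred) preincubated 10 min at room temperature with a 500nM (2x) first reagent, then RGS4 at 900nM (2x) plus Transcreener GDP mix added; fluorescence polarization (620/688 nm) read before and after 90 min at 30 °C.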
An asterisk follows results filed as active; i = inactive; u = inconclusive; x = not tested or not shown; & = joins results of further samples; [ ] = remark or other dose. Unless noted, calls come from the whole dose curve; as a rule, active = well fitted curve in the direction sought with a large enough effect; inconclusive = small, poorly fitted or top-dose-only effect, or another doubt; inactive = no such curve, though single readings can be large; an effect the other way counts as inactive or inconclusive. Potency is the fitted concentration of half-maximal effect. Only part of the results is shown; rates above refer to the full screens.

ALOX12 inh	RGS4 inh	Tb PGK inh	rTrxR1 inhibitor	ERG Ets-DNA blk	Pin1 inhibitor	Compound	GLS inhibitor
u	-20%	i	84%[activator]	14%	2%	O=C(O)C1CSC(CCc2ccccc2)N1 (stereo unspecified)	1%
2.5µM*	-7%	3%	6%	0%	-8%	COc1ccc(S(=O)(=O)N2CCN(Cc3ccco3)CC2)cc1	0%
u	24%	0%	12%	-16%	-2%	CC1CN(CCCOc2ccccc2[N+](=O)[O-])CC(C)O1 (stereo unspecified)	5%
0%	-51%	u	-30%	-2%	u	O=C(NCc1ccco1)c1ccc2c(=O)n(Cc3ccco3)c(SCC(=O)N3CCCC3)nc2c1	0%
-29%	-5%	-6%	17%	5%	u	Cc1ccc(/C=C2/Sc3ccc(C(=O)N4CCN(C)CC4)cc3NC2=O)cc1	11%
27%	-1%	-7%	50%	11%	7%	CCOC(=O)c1cc(C#N)c(N2CCCC2)nc1-c1ccccc1	-3%
35µM*	u	-21%	7.1µM*	0%	0%	Cc1ccc(N(CC(O)COCc2ccco2)S(=O)(=O)c2ccc(C)cc2)cc1 (stereo unspecified)	1%
u	u	i	-3%	-4%	-3%	O=C1N(c2ccc(Cl)cc2)C(c2ccccc2)N2CCCN12 (stereo unspecified)	14%
1%&2%	5%&5%	6%&-9%	-9%&15%	7%&-2%	-2%&2%	O=C(CSc1ccc(-c2ccccn2)nn1)Nc1ccc(F)cc1F	9%&4%
0.5µM*	-10%	-8%	17%[57.1 µM]	-8%	0%	CCN1CCN(CC(=O)Nc2ccc(OC(F)(F)F)cc2)CC1	3%
2%	-4%	-2%	-20%	1%	-3%	O=C(NN=Cc1c(F)c(F)c(F)c(F)c1F)c1ccc(NS(=O)(=O)c2cccs2)cc1	9%
u	-34%	-11%	9%	12%	-3%	COc1ccc(OC)c(CN2CCN(c3ccccc3OC)CC2)c1	28%
8%	-5%	-5%	22%[57.1 µM]	7%	-5%	CC(C)C[C@H](NC(=O)c1nc[nH]c1C(=O)N1CCNCC1)C(=O)OC(C)(C)C	-1%
-8%	-41%	-6%	7%[57.1 µM]	7%	-10%	COc1ccccc1NC(=O)C(=O)N(c1cccnc1)C(C(=O)NC(C)(C)C)c1ccccc1 (stereo unspecified)	5%
u	-7%	1%	2%	-8%	7%	COc1ccc(OC)c2c(C)c(C)[nH]c12	2%
91%[activator]	22%	-5%	21%	15%	-1%	CCOC(=O)c1cc(C#N)c(N2CCNCC2)nc1C(F)(F)F	-3%
-16%	-16%	8%	-4%[57.1 µM]	-4%	-3%	O=C(Nc1ccccc1[N+](=O)[O-])C1COc2ccccc2O1 (stereo unspecified)	0%
-4%	14%	0%	0%	0%	4%	COc1ccc(-c2nc3cc(C)ccn3c2NCc2ccc3c(c2)OCO3)cc1	16%
u	-13%	i	27%	13%	1%	O=C(CCSc1ccc(Cl)cc1)N1CCN(c2ccc(O)cc2)CC1	-5%
-17%	12%	-25%	2%[57.1 µM]	-4%	u	CCCCNC(=S)N/N=C/c1ccc(C#N)cc1	8%
-11%	-7%	-2%	-8%	-6%	4%	C=CCN=c1scc(-c2ccc(F)cc2)n1/N=C/c1ccccn1	-14%
u	-26%	-3%	18%	12%	-1%	CCC(=O)c1ccc(OCC(O)CN2CC(C)OC(C)C2)cc1 (stereo unspecified)	1%
u	45%	7%	-7%	-3%	2%	NC(=O)C(c1ccc(Cl)cc1)c1ccc(Sc2ccc(Cl)cc2)nn1 (stereo unspecified)	4%
276%[activator]	-15%	-9%	3%	2%	-12%	Cc1cc(C)n(C(=O)Cc2cn3ccsc3n2)n1	-5%
29%	-9%	-2%	-7%[57.1 µM]	-7%	1%	COc1ccc(-c2c(NCCc3ccccc3)c(=O)c2=O)cc1	98%[activator]

A draw from above in order of count of non-hydrogen atoms, descending.
ALOX12 inh	RGS4 inh	Tb PGK inh	rTrxR1 inhibitor	ERG Ets-DNA blk	Pin1 inhibitor	Compound	GLS inhibitor
1%&2%	5%&5%	6%&-9%	-9%&15%	7%&-2%	-2%&2%	O=C(CSc1ccc(-c2ccccn2)nn1)Nc1ccc(F)cc1F	9%&4%
2.5µM*	-7%	3%	6%	0%	-8%	COc1ccc(S(=O)(=O)N2CCN(Cc3ccco3)CC2)cc1	0%
u	u	i	-3%	-4%	-3%	O=C1N(c2ccc(Cl)cc2)C(c2ccccc2)N2CCCN12 (stereo unspecified)	14%

Whole records as entered above. Screens in order: ALOX12 inh	RGS4 inh	Tb PGK inh	rTrxR1 inhibitor	ERG Ets-DNA blk	Pin1 inhibitor	GLS inhibitor
`O=C(O)C1CSC(CCc2ccccc2)N1` (stereo unspecified) across the screens: u	-20%	i	84%[activator]	14%	2%	1%
`CC(C)C[C@H](NC(=O)c1nc[nH]c1C(=O)N1CCNCC1)C(=O)OC(C)(C)C` across the screens: 8%	-5%	-5%	22%[57.1 µM]	7%	-5%	-1%
`O=C(NCc1ccco1)c1ccc2c(=O)n(Cc3ccco3)c(SCC(=O)N3CCCC3)nc2c1` across the screens: 0%	-51%	u	-30%	-2%	u	0%

(listing goes on)
ALOX12 inh	RGS4 inh	Tb PGK inh	rTrxR1 inhibitor	ERG Ets-DNA blk	Pin1 inhibitor	Compound	GLS inhibitor
u	-15%	-5%	13%[57.1 µM]	4%	0%	CCOc1ccc(NC(=O)N2CC3CCCN3c3ccccc32)cc1 (stereo unspecified)	29%
-13%	-8%	-6%	19%	-10%	-1%	CC(C)CCNC(=O)[C@H](Cc1ccccc1)N1Cc2ccccc2C1=O	-10%
-23%	28%	-5%	-8%	-2%	10%	COc1ccc(Cl)cc1NC(=O)C(C)N(C)Cc1ccc(C(F)(F)F)cc1 (stereo unspecified)	0%
69%[activator]	-6%	1%	16%	-1%	0%	COc1ccc(/C=C/C(=O)NC(=S)N2CCN(c3ccccn3)CC2)cc1	10%
u	u	8%	32µM*	x	2%	CCN1C(=O)/C(=C/c2ccc(C)o2)N(C)C1=S	8%
-13%	8%	1%	11%[57.1 µM]	-1%	6%	Cc1ccc(NC(=O)c2c(Nc3ccccc3C)sc(C(=O)c3ccccc3)c2N)cc1	-2%
10µM*	-28%	i	u	-6%	1%	O=c1cc(-c2ccccc2)n(S(=O)(=O)c2ccccc2)o1	24%
u	-17%	i	5%	16%	43%[activator]	CCCCN=c1scc(-c2ccc3c(c2)NC(=O)CO3)n1N=C1CCCC1	9%
u	-4%	-3%	-7%	-1%	3%	Cc1cccc(CN2CCN(Cc3ccco3)CC2)c1	-2%
u	u	x	4.5µM*	x	1%	CCOC(=O)c1c(-c2ccc(C)o2)csc1NC(=O)CN1CCN(CC)CC1	10%
u	18%	i	15%	4%	1%	CN(C)c1cccc(C(=O)N(Cc2ccccc2)Cc2ccccc2)c1	10%
1µM*	-21%	-1%	6%	16%	8%	CC(C(=O)N1CCCCC1)N1CCN(S(=O)(=O)c2ccc(Cl)cc2)CC1 (stereo unspecified)	0%
u	-11%	5%	8%	x	u	O=C(c1ccccc1)N1CCN(Cc2ccccc2)CC1	-6%
-14%	u	-9%	9%	0%	37%[activator]	Cc1nnc(-c2ccc(Oc3ccc(Cl)cc3)c([N+](=O)[O-])c2)o1	-5%
2%	16%	i	11%[57.1 µM]	-9%	-5%	CC(C)c1nnc(NC(=O)c2cccs2)s1	0%
-2%	-34%	3%	-8%[57.1 µM]	0%	-4%	C/C(CC(=O)NCC(C)C)=N\NC(=O)COc1cc(C)c(Br)cc1Br	3%
u	-12%	-11%	7%[57.1 µM]	-5%	7%	O=[N+]([O-])c1ccccc1C=NN1CCCCCC1	1%
u	-5%	0%	13%[57.1 µM]	-5%	5%	CCc1cc(OCCN(C)C)ccc1Cl	27%
u	13%	-13%	-20%[57.1 µM]	-2%	-17%	CC(C)(C)c1cc(C(C)(C)C)c2oc(=O)c(-c3nc4ccc(C(=O)O)cc4[nH]3)cc2c1	0%
0%	-20%	-7%	17%	-9%	2%	CC(C)(C)c1ccc(-c2nc(C#N)c(NCc3cccnc3)o2)cc1	3%
0%	6%	x	25%	5%	-7%	COc1cccc(CC2(CO)CCCN(Cc3ccc(CN4CCCCC4)s3)C2)c1 (stereo unspecified)	2%
u	-30%	2%	16%	x	-2%	CCN(CC)C(=O)C1CCCN(Cc2ccccc2)C1 (stereo unspecified)	-6%
-8%	-14%	-11%	19%	5%	-3%	COc1ccccc1CNC1CCCc2ccccc21 (stereo unspecified)	-1%
-17%	-23%	-9%	16%	-4%	2%	O=C(C1CCCN(CCCc2ccccc2)C1)N1CCCCC1 (stereo unspecified)	-4%
-25%	u	-8%	-9%	24%	0%	Cc1ccc(/C=N/NC(=O)C(C)Oc2cccc3ccccc23)o1 (stereo unspecified)	2%

More entries follow.
ALOX12 inh	RGS4 inh	Tb PGK inh	rTrxR1 inhibitor	ERG Ets-DNA blk	Pin1 inhibitor	Compound	GLS inhibitor
-10%	-18%	i	4.5µM*	1%	0%	O=C(CC1Sc2ncnn2C1=O)Nc1ccccc1 (stereo unspecified)	-3%
-14%	4%	4%	11%[57.1 µM]	5%	-5%	COc1cccc(CN(C)CC(=O)Nc2ccccc2C(C)C)c1	3%
-25%	22%	-1%	20%[57.1 µM]	2%	1%	CCC(=O)c1ccccc1OCCN1CCN(Cc2ccccc2)CC1	9%
u	4%	7%	10%[57.1 µM]	-3%	-2%	COc1ccc(CN2CCSCC2)cc1O	32%[activator]
13%	-36%	-3%	7%	7%	6%	O=C(CSc1ccc(-c2ccccn2)nn1)Nc1cccc(F)c1	-3%
4%	35%	x	23%	x	-1%	O=C(NCCc1ccccc1)c1ccnc(/C=N/O)c1	34%[activator]
-29%	25%	-4%	-2%[57.1 µM]	-5%	-2%	CCOC(=O)C1=NN(c2ccc(OC)cc2)C2C(=O)N(c3ccccc3OC)C(=O)C12 (stereo unspecified)	-2%
u	-19%	i	16%[57.1 µM]	0%	-2%	O=C(c1ccccc1)c1ccc(OCC(O)CNCc2cccc(Cl)c2)cc1 (stereo unspecified)	-7%
0%	-39%	-7%	4%[57.1 µM]	-9%	-14%	c1ccc(Cn2c(SCCN3CCOCC3)nnc2-c2cccnc2)cc1	-8%
u	-18%	1%	-15%[57.1 µM]	-1%	0%	Cn1c(-c2ccc3c(c2)OCO3)cnc1NCc1ccccc1	25%
x	2%	i	-5%	-13%	6%	O=C(CN1C(=O)NC(c2ccc(F)cc2)C1=O)NC1CCCCC1 (stereo unspecified)	10%
